High-throughput results: PubChem, several laboratories
Bead autofluor: compound fluorescence in toxin protease inhibitor counterscreen; compound autofluorescence counterscreen, microsphere flow cytometry; hits give high values; fluorescence intensity (no concentration beside the values); 3.1% of 360,000 active;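 active means at least 3 SD above the mean of all compounds, about 16000 in these data; inconclusive means too few beads counted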;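 further: 100 nL of 1 mM stock went into each well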
RN4220 kill: kills Staphylococcus aureus RN4220; S. aureus RN4220 growth, OD600, 16 h; inhibition, % (concentration not given with the values); 0.33% of 330,000 active; AID 1259311;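 active means z-score of -3 or lower and OD600 up to 0.18 on both plates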;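 further: plate controls were untreated cells for no effect and reference antibiotic for full effect; stock transfer was 100 nL into about 80 µL; one replicate is shown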
ugtP null kill: kills S. aureus RN4220 lacking UgtP; growth inhibition, % (concentration not given with the values); 0.54% of 330,000 active; S. aureus RN4220 ugtP deletion, OD600 growth, 16 h; some inactives read as strong as hits;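 active means z-score under -3 and OD600 up to 0.15 on both plates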;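 further: plate controls were untreated wells for no effect and antibiotic for full effect; wells of about 80 µL received 100 nL stock; the first replicate is given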
PrP UTR inh: suppresses PrP 5' UTR mRNA reporter expression; cell-based PrP 5' UTR mRNA reporter, plate reader; inhibition, % (concentration not given with the values); 0.35% of 340,000 active; AID 488862;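 active means every replicate at 50% or more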;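 further: 0 = median of the neutral control wells; tested in H4 reporter cells; numbers are from one replicate; inactives centre near -14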
Mtb hypoxia inh: Mtb hypoxia fluorescent reporter inhibition | AID 1159583 | 0.1% of 300,000 active | M. tuberculosis hypoxia-regulated fluorescent reporter, fluorescence | fluorescence inhibition, % (no concentration beside the values);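 active means 35 to 45% if threefold the growth effect, above 45% if 1.5-fold the growth effect; inactive means the rest, general growth blockers included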;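 further: wells of about 50 µL received 100 nL stock; 0% = vehicle wells and 100% = reference inhibitor wells; whole bacteria with a GFP reporter of the hypoxia response; strong numbers were not always called active; many hits fall short of the cut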
BJeLR viability: kills HRASV12-expressing BJeLR cells; BJeLR (HRASV12) viability, CellTiter-Glo ATP luminescence, 48 h; reference of the scale not given here; inhibition, % (concentration not given with the values); 0.17% of 300,000 active; AID 1554;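 active means replicate mean above 50%; inconclusive means above 50% but judged a plate artefact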;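 further: 50 nL library stock added to about 25 µL; numbers are from one replicate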
Mtb hypoxia inh growth: further read-out of Mtb hypoxia inh, marked with its call; growth inhibition, %; measured here: M. tuberculosis growth (absorbance);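 0% = vehicle and 100% = reference antibiotic; read after six days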
Numbers without * were called inactive. Outcome played no part in choosing rows, and some 4% of all compounds hit somewhere here.

What do the screens show for `CCN(CC)C(=O)N1CCN(C(=O)N2CCOCC2)CC1`?
Bead autofluor: 3580; RN4220 kill: 0.5; ugtP null kill: 6; PrP UTR inh: -18; Mtb hypoxia inh: 11; BJeLR viability: 1; Mtb hypoxia inh growth: 12

Results for Cc1ccc(S(=O)(=O)NC(CC(C)C)C(=O)N2CCCCCCC2)cc1 (centres undefined) ?
Bead autofluor: 5780; RN4220 kill: 3.2; ugtP null kill: -1; PrP UTR inh: -19; Mtb hypoxia inh: 10; BJeLR viability: -1; Mtb hypoxia inh growth: 0

Results for COc1ccccc1N1C(=O)N(C(C)=O)C2C1Nc1ccccc1N2C (centres undefined) ?
Bead autofluor: 7068; RN4220 kill: -1.7; ugtP null kill: -6; PrP UTR inh: -27; Mtb hypoxia inh: 4; BJeLR viability: -5; Mtb hypoxia inh growth: -4

Results for CSc1ccccc1OCc1cc(C(=O)N(C)C(C)c2ccccn2)no1 (centres undefined) ?
Bead autofluor: 5736; RN4220 kill: 1.0; ugtP null kill: -2; PrP UTR inh: 1; Mtb hypoxia inh: -10; BJeLR viability: -6; Mtb hypoxia inh growth: 5

What do the screens show for `Cc1ccc(CNC(=S)NC2CCCCC2)cc1`?
Bead autofluor: inconclusive; RN4220 kill: -3.4; ugtP null kill: 0; PrP UTR inh: -23; Mtb hypoxia inh: -2; BJeLR viability: 7; Mtb hypoxia inh growth: 9

Results for O=S(=O)(O)c1nc2ccccc2n1Cc1ccc(Cl)cc1 ?
Bead autofluor: 3859; RN4220 kill: -0.4; ugtP null kill: -2; PrP UTR inh: -7; Mtb hypoxia inh: 10; BJeLR viability: 3; Mtb hypoxia inh growth: 3

How did N#Cc1nc(-c2ccc(Cl)cc2)oc1NCC1CCCO1 (centres undefined) do in these assays?
Bead autofluor: 3194; RN4220 kill: 16; ugtP null kill: 0; PrP UTR inh: -20; Mtb hypoxia inh: -5; BJeLR viability: -8; Mtb hypoxia inh growth: -4

What do the screens show for `CN(C)S(=O)(=O)c1cc(NC(=O)CN2CCOCC2)ccc1Cl`?
Bead autofluor: 3164; RN4220 kill: 4.9; ugtP null kill: 8; PrP UTR inh: 5; Mtb hypoxia inh: 1; BJeLR viability: -6; Mtb hypoxia inh growth: 1

How did CCOC(=O)N1CCC(NC(=O)CN2C(=O)C(CC)Oc3ccc(C)cc32)CC1 (centres undefined) do in these assays?
Bead autofluor: 6806; RN4220 kill: 1.9; ugtP null kill: 7; PrP UTR inh: -47; Mtb hypoxia inh: 15; BJeLR viability: -6; Mtb hypoxia inh growth: 6

Results for COc1ccccc1C(=O)N(C1=NC(C)CS1)c1ccc(Cl)cc1 (centres undefined) ?
Bead autofluor: 5995; RN4220 kill: 1.6; ugtP null kill: 9; PrP UTR inh: -10; Mtb hypoxia inh: -9; BJeLR viability: 0; Mtb hypoxia inh growth: -11

What do the screens show for `Cc1cc(C)n2nc(SCC(=O)c3ccccc3)nc2n1`?
Bead autofluor: 10435; RN4220 kill: 8.7; ugtP null kill: -1; PrP UTR inh: -36; Mtb hypoxia inh: 5; BJeLR viability: -7; Mtb hypoxia inh growth: 2

How did O=C(NCCO)c1cccc(Nc2nc(-c3ccccc3)c3cc(Cl)ccc3n2)c1 do in these assays?
Bead autofluor: 20185*; RN4220 kill: 12; ugtP null kill: -19; PrP UTR inh: -15; Mtb hypoxia inh: 2; BJeLR viability: 5; Mtb hypoxia inh growth: 5

Results for O=c1[nH]c2cc3c(cc2cc1C(c1nnnn1CC1CCCO1)N1CCCCCC1)OCCO3 (centres undefined) ?
Bead autofluor: 22706*; RN4220 kill: 5.5; ugtP null kill: -4; PrP UTR inh: -13; Mtb hypoxia inh: -6; BJeLR viability: 0; Mtb hypoxia inh growth: 8

What do the screens show for `O=C(Nc1ccc(N2CCCC2)cc1)c1cc2ccccc2o1`?
Bead autofluor: 3568; RN4220 kill: 6.8; ugtP null kill: 0; PrP UTR inh: -30; Mtb hypoxia inh: 6; BJeLR viability: 12; Mtb hypoxia inh growth: 10

What do the screens show for `O=C(c1ccc(S(=O)(=O)N2CCOCC2)cc1)N1CCc2ccccc21`?
Bead autofluor: 3780; RN4220 kill: 1.2; ugtP null kill: 2; PrP UTR inh: -18; Mtb hypoxia inh: 1; BJeLR viability: 1; Mtb hypoxia inh growth: 0

How did CCOc1ccc(N(CC(=O)NCCOc2ccc(C)cc2)S(=O)(=O)c2ccccc2)cc1 do in these assays?
Bead autofluor: 6617; PrP UTR inh: -22; BJeLR viability: -1

How did Cc1cc(Cl)cc(C)c1OCC(=O)NC1CCCCCC1 do in these assays?
Bead autofluor: 3889; RN4220 kill: -1.5; ugtP null kill: -13; PrP UTR inh: -36; Mtb hypoxia inh: 16; Mtb hypoxia inh growth: 18

Results for COc1cc(/C=N/NC(=O)NC2CCCCC2)cc(OC)c1O ?
Bead autofluor: 4104; PrP UTR inh: -16; BJeLR viability: -2

How did Cc1ccc(S(=O)(=O)Cc2ccc(C(=O)NC3CCCCCC3)o2)cc1 do in these assays?
Bead autofluor: 5892; RN4220 kill: 0.1; ugtP null kill: -1; PrP UTR inh: 0; Mtb hypoxia inh: -2; BJeLR viability: -6; Mtb hypoxia inh growth: 3

What do the screens show for `O=c1cccccc1NN=C1CCCCCC1`?
Bead autofluor: 4386; RN4220 kill: 6.2; ugtP null kill: 11; PrP UTR inh: -69; Mtb hypoxia inh: 10; BJeLR viability: -6; Mtb hypoxia inh growth: 8

How did CC1CCCCN1C(=O)c1cc(S(=O)(=O)N2CCCCC2)c[nH]1 (centres undefined) do in these assays?
Bead autofluor: 5023; RN4220 kill: 7.1; ugtP null kill: -4; PrP UTR inh: -17; Mtb hypoxia inh: 1; BJeLR viability: -10; Mtb hypoxia inh growth: 9

How did CC(NC(=O)c1cc2ccccc2o1)C(=O)O (centres undefined) do in these assays?
Bead autofluor: 4995; RN4220 kill: 2.4; ugtP null kill: 4; PrP UTR inh: -8; BJeLR viability: -6

How did O=C(Nc1nc(-c2ccc(Cl)s2)cs1)c1ccccc1 do in these assays?
Bead autofluor: 2854; RN4220 kill: 6.2; ugtP null kill: 94*; PrP UTR inh: -37; BJeLR viability: 4

What do the screens show for `Cc1ccccc1C=NNc1ncnc2nc[nH]c12`?
RN4220 kill: 0.8; ugtP null kill: -2; Mtb hypoxia inh: -8; Mtb hypoxia inh growth: 6

Continued, starting with the last 2 of the part before.
How did O=C(Nc1nc(-c2ccc(Cl)s2)cs1)c1ccccc1 do in these assays?
Bead autofluor: 2854; RN4220 kill: 6.2; ugtP null kill: 94*; PrP UTR inh: -37; BJeLR viability: 4

What do the screens show for `Cc1ccccc1C=NNc1ncnc2nc[nH]c12`?
RN4220 kill: 0.8; ugtP null kill: -2; Mtb hypoxia inh: -8; Mtb hypoxia inh growth: 6

What do the screens show for `COC(=O)CCC(=O)CN`?
Bead autofluor: 5983; RN4220 kill: 5.7; ugtP null kill: -2; PrP UTR inh: -8; Mtb hypoxia inh: 5; BJeLR viability: 8; Mtb hypoxia inh growth: -3

How did O=C(CN1CCCc2ccccc21)NN=Cc1ccccc1 do in these assays?
RN4220 kill: 5.6; ugtP null kill: -5; Mtb hypoxia inh: 0; Mtb hypoxia inh growth: 14

How did CCN1C(=O)C2C(c3ccc(-c4cccc(Cl)c4)cc3)N3CCC[C@@]3(C(=O)OC)C2C1=O (some centres undefined) do in these assays?
RN4220 kill: 1.7; ugtP null kill: 0; Mtb hypoxia inh: 6; Mtb hypoxia inh growth: 7

How did CCCn1c(N)c(C(=O)CSc2nnc(C3CC3)n2Cc2ccccc2)c(=O)[nH]c1=O do in these assays?
Bead autofluor: 4613; RN4220 kill: 0.8; ugtP null kill: 3; PrP UTR inh: -33; BJeLR viability: -2

What do the screens show for `CCOc1ccc(N(CC(=O)NCc2ccco2)C(=O)CCC(=O)Nc2nccs2)cc1`?
Bead autofluor: 5707; RN4220 kill: 0.5; ugtP null kill: -2; PrP UTR inh: -20; Mtb hypoxia inh: 13; BJeLR viability: 0; Mtb hypoxia inh growth: 5

What do the screens show for `COc1ccccc1OCc1nnc(SCC(=O)N2CCCCC2)o1`?
Bead autofluor: 5499; RN4220 kill: -0.8; ugtP null kill: -1; PrP UTR inh: -8; Mtb hypoxia inh: -8; BJeLR viability: -14; Mtb hypoxia inh growth: 3

How did O=C(C=Cc1cccc(O)c1)c1ccccc1O do in these assays?
Bead autofluor: 4004; RN4220 kill: 0.3; ugtP null kill: -8; PrP UTR inh: -50; Mtb hypoxia inh: -8; Mtb hypoxia inh growth: 20

What do the screens show for `CCN(CC)c1ccc(/C=N/NC(=O)CNC(=O)C2COc3ccccc3O2)c(O)c1` (centres undefined)?
Bead autofluor: 4336; PrP UTR inh: 43; BJeLR viability: 10

Results for CC(C)NC(=O)c1cc(-n2cnnc2)ccc1Cl ?
Bead autofluor: 20045*; RN4220 kill: 5.7; ugtP null kill: -4; PrP UTR inh: -7; Mtb hypoxia inh: 5; BJeLR viability: 6; Mtb hypoxia inh growth: 8

Results for Cc1nc(SCc2ccccc2C#N)n[nH]1 ?
Bead autofluor: 3176; RN4220 kill: 3.5; ugtP null kill: 7; PrP UTR inh: -7; Mtb hypoxia inh: 8; BJeLR viability: 2; Mtb hypoxia inh growth: 1

What do the screens show for `Cc1ccc(-c2cn3cccnc3n2)cc1NC(=O)c1ccc(Br)o1`?
Bead autofluor: 17184*; RN4220 kill: 4.0; ugtP null kill: -1; PrP UTR inh: -17; Mtb hypoxia inh: 22; BJeLR viability: 12; Mtb hypoxia inh growth: 14

Results for CCOC(=O)N1CCN(C(=O)CN(c2ccc(OCc3ccccc3)cc2)S(C)(=O)=O)CC1 ?
Bead autofluor: 15486; RN4220 kill: 4.4; ugtP null kill: 0; PrP UTR inh: -3; Mtb hypoxia inh: 9; BJeLR viability: 4; Mtb hypoxia inh growth: 7

Structures above that contain a cyano group, in the order listed:
How did N#Cc1nc(-c2ccc(Cl)cc2)oc1NCC1CCCO1 (centres undefined) do in these assays?
Bead autofluor: 3194; RN4220 kill: 16; ugtP null kill: 0; PrP UTR inh: -20; Mtb hypoxia inh: -5; BJeLR viability: -8; Mtb hypoxia inh growth: -4

Results for Cc1nc(SCc2ccccc2C#N)n[nH]1 ?
Bead autofluor: 3176; RN4220 kill: 3.5; ugtP null kill: 7; PrP UTR inh: -7; Mtb hypoxia inh: 8; BJeLR viability: 2; Mtb hypoxia inh growth: 1

New compounds follow
How did Cc1oc(-c2ccoc2)nc1CN(CC1CCC(=O)N1)C(C)C (centres undefined) do in these assays?
Bead autofluor: 4474; PrP UTR inh: -16; BJeLR viability: 3

How did COc1ccc(C2c3c(n[nH]c3C)CC(C)(O)C2C(C)=O)cc1OC (centres undefined) do in these assays?
Bead autofluor: 6019; RN4220 kill: 2.2; ugtP null kill: -1; PrP UTR inh: 4; Mtb hypoxia inh: 3; BJeLR viability: 2; Mtb hypoxia inh growth: 9

How did O=C(/C=C/c1ccc(S(=O)(=O)N2CCOCC2)cc1)NC(=S)NCCCn1ccnc1 do in these assays?
Bead autofluor: 2492; PrP UTR inh: -21; BJeLR viability: 0

How did CCc1ccccc1NC(=O)N[C@H](C(=O)O)C(C)CC (some centres undefined) do in these assays?
Bead autofluor: 3070; PrP UTR inh: -9; BJeLR viability: -5

Results for CCOC(=O)N1CCC(Nc2c(Nc3ccc(C)c(C)c3)c(=O)c2=O)CC1 ?
Bead autofluor: 9689; RN4220 kill: 3.2; ugtP null kill: 4; PrP UTR inh: -17; Mtb hypoxia inh: -7; BJeLR viability: -9; Mtb hypoxia inh growth: -1

Results for CSc1ccc(C=NNC(=O)CN2CCN(Cc3ccc(C)cc3)CC2)cc1 ?
RN4220 kill: -0.4; ugtP null kill: -3; Mtb hypoxia inh: -8; Mtb hypoxia inh growth: 3

Results for COc1cc(/C=C2/C(=O)N=C(N)N2C)cc(OC)c1OC ?
Bead autofluor: 2991; RN4220 kill: -14; ugtP null kill: -4; PrP UTR inh: 1; Mtb hypoxia inh: 1; BJeLR viability: -5; Mtb hypoxia inh growth: -3
